Screening results: PubChem, National Center for Advancing Translational Sciences (NCATS)
VDR inhibitor – inhibitors of human vitamin D receptor; P11473; VDR-SRC2-3 peptide fluorescence polarization, 2 h; Potency, µM, for the others: max response, negative = inhibition, most hits filed as inhibitors; 400,000 tested, 0.93% active; AID 504847; active = well fitted inhibition curve with a large enough effect; inconclusive = small, poorly fitted or top-dose-only effect, or another doubt; inactive = no such curve, though single readings can be large or run the other way; also: series mostly up to about 120 µM
Target sequence (P11473 whole entry, looked up): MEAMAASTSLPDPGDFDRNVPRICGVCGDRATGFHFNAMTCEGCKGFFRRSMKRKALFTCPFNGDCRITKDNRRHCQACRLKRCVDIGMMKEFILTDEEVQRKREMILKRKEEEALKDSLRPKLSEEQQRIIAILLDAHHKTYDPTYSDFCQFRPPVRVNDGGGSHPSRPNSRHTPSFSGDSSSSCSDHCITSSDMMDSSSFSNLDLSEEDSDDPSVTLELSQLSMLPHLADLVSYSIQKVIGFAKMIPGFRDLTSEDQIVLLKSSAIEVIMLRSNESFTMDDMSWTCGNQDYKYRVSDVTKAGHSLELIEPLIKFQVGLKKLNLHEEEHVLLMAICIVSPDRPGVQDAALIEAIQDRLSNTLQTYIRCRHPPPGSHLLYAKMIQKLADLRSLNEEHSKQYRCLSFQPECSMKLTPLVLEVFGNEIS
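After 23 nl compound addition and a short centrifugation, plates sat for 2 hours at ambient temperature; polarization of fluorescence then indicated loss of VDR binding to peptide SRC2-3.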
The depositor's hits bear a star; u = inconclusive. % is scaled to controls: 0 for no effect and ±100 for the full control effect; potency is read from the fitted curve at half-maximal effect. Only part of the results is shown. The share of hits here may be higher or lower than overall.

SMILES | VDR inhibitor
O=C(COC(=O)/C=C/c1ccco1)Nc1ccc(F)cc1Cl | 21.0%
COc1cc(/C=C(\C(=O)O)c2ccc(S(=O)(=O)N3CCCC3)s2)cc(OC)c1 | -18.1%
C=C(C)c1cccc(C(C)(C)NC(=O)N2CCN(c3ccc(OC)cc3)CC2)c1 | 6.8%
COc1ccc(C)cc1N(CC(=O)N/N=C/c1ccc2c(c1)OCO2)S(C)(=O)=O | 7.9%
Clc1ccccc1Cn1cccc1C1=NC(Cc2ccccc2)CO1 (stereo unspecified) | -16.1%
COc1cccc(CN2c3ccc(Br)cc3C(=O)CS2(=O)=O)c1 | -7.2%
COCCCN1C(=O)CC(C(=O)OC)=C1C | -1.4%
Cn1nc(-c2ccccc2)c(C#N)c1Sc1cccc(Cl)c1 | 3.2%
O=[N+]([O-])c1ccc(-c2ccc(/C=N/Nc3nc(NCc4ccccc4)nc(N4CCOCC4)n3)o2)cc1 | -4.3%
CS(=O)(=O)c1ccc(C(=O)OCC(=O)NCc2cccs2)cc1[N+](=O)[O-] | u
CC1CCN(C(=O)CCCC(=O)O)CC1 | -0.9%
CC(CNC(=O)C1CCN(C(=O)c2cc3sccc3n2C)CC1)c1ccccc1 (stereo unspecified) | -11.5%
COc1cc(CNC(=O)CCn2nc(C)c3c(C)n(-c4ccccc4)nc3c2=O)cc(OC)c1OC | 3.5%
O=C(NCC1CCCO1)C1CCN(C2CCN(Cc3cccs3)CC2)CC1 (stereo unspecified) | -2.1%
CC1(C)S/C(=N/N=C/c2cccs2)NC1=O | -0.6%
NC(=O)NO | u
CN(c1ccc(C(=O)N2CCOCC2)cc1)S(C)(=O)=O | -11.9%
O=S(=O)(NCCc1ccccc1)c1ccc(Cl)nc1 | 7.2%
Cc1cccc(OCC(=O)Nc2ccc3nc(Nc4cccc(Cl)c4)cc(C)c3c2)c1 | 10.4%
COc1cccc(N2C(=O)CC(N3CCN(CCN=CC4=C(O)CC(C)(C)CC4=O)CC3)C2=O)c1 (stereo unspecified) | -13.2%
COc1ccc(Nc2nc3cc(C)ccc3cc2C#N)cc1 | 6.1%
O=C(c1cc2ccccc2cc1O)N1CCN(c2cccc(Cl)c2)CC1 | 1.6%
O=C(COC(=O)c1ccccc1NC(=O)c1ccco1)Nc1ncc(Cl)cc1Cl | 4.4%
Cc1ccccc1OCC(=O)Nc1cccc(S(=O)(=O)NC2=NCCC2)c1 | 6.7%
O=C(Nc1cccc(Cl)c1Cl)c1ccc(-c2ccccc2)cc1 | -7.7%
CS(=O)(=O)N(CC(=O)N1CCN(Cc2ccccc2)CC1)c1cccc([N+](=O)[O-])c1 | 0.1%
CCn1c2ccccc2c2nnc(SCC(=O)NCc3cccs3)nc21 | -13.3%
Cn1c(=O)n(C)c2cc(N3CCOCC3)c(NC(=O)c3cccc(Cl)c3)cc21 | -5.2%
CC1=C/C(=N\NC(=O)c2cccs2)CC(C)(C)C1 | 11.9%
CCn1c(CNC(=O)c2ccc(OC)cc2)nnc1SCC(=O)c1ccccc1 | u
CCOC(=O)c1cc2sccc2n1CC(=O)N1CCCc2ccccc21 | -1.0%
Cc1nonc1NC(=O)CSc1cn[nH]n1 | -3.0%
Cc1nc2c(-c3ccccc3)c(C)nn2c(C)c1CCC(=O)NCc1ccco1 | -10.2%
Cc1c(Cl)cccc1NC(=O)CCS(=O)(=O)c1ccc(Br)s1 | -15.6%
CCN(CC)c1ccc(S(=O)(=O)N2CCOCC2)cc1NC(=O)CN1C(=O)NC2(CCC(C)CC2)C1=O (stereo unspecified) | -2.4%
COC(=O)c1ccc(NN=Nc2ccc(C)cc2)cc1 | u
Cc1cc(C(=O)COC(=O)c2ccc3c(c2)NC(=O)CS3)c(C)n1CC1CCCO1 (stereo unspecified) | -18.1%
COc1ccc(CCNC(=O)CSc2nc3[nH]ncc3c(=O)n2-c2ccc(Cl)cc2Cl)cc1OC | -9.8%
COc1ccc(NS(=O)(=O)c2ccc(Br)cc2)cn1 | 8.5%
CCCOc1ccc(C(=O)NNC(=S)NC(=O)c2ccco2)cc1 | -29.3%
O=S(=O)(Nc1ccc2c(c1)OCO2)c1ccc(F)c(F)c1 | 0.0%
CC(=O)Nc1ccc(NC(=O)c2ccccc2C)cc1 | 6.8%
Cc1ccc(OCC(=O)NC(C)c2ccccc2)c([N+](=O)[O-])n1 (stereo unspecified) | -2.2%
CC(C)(C)C1CCC(C(=O)OCC(=O)N2CCOCC2)CC1 (stereo unspecified) | -5.6%
CCN1CCN(CCC(=O)Nc2ccccc2C)CC1 | -26.2%
COc1cccc(OC)c1C(=O)Nc1nc(-c2ccccc2)cs1 | 0.3%
Cc1cccc(NC(=O)CSCC(=O)NCc2ccco2)c1 | -8.4%
COc1ccc(C(CC(=O)O)N2Cc3ccccc3C2=O)cc1 (stereo unspecified) | -6.8%
CCCSCCCNC(=O)Cn1c(=O)c2cccn2c2ccccc21 | 3.9%
COc1cccc(C(=O)COc2ccc3ccc(=O)oc3c2)c1 | -11.7%

Next section:
SMILES | VDR inhibitor
CC1CC(C)CN(CC(=O)c2c[nH]c3ccccc23)C1 (stereo unspecified) | -14.0%
Cc1nn(CC2CC2)c(=O)n1-c1ccc(Oc2ccccc2)cc1 | 8.8%
CC(=O)Oc1cccc2c1C(=O)C1CC=CC(OC(C)=O)C1C2=O (stereo unspecified) | -17.0%
CC1(C(=O)O)CCC(C(=O)NCCc2ccccc2)C1(C)C (stereo unspecified) | -1.8%
CCOc1ccccc1NC(=O)C(C)CC (stereo unspecified) | -0.8%
COC(=O)c1ccc(/C=C(\C#N)c2ccccn2)cc1 | -18.6%
CCOc1ccc(OCC)c(NC(=O)c2ccc(CNc3c(N4CCOCC4)c(=O)c3=O)cc2)c1 | -11.9%
Cc1ccc(-c2cnc(NCc3ccc(C(F)(F)F)cc3)n2C)cc1 | -3.9%
CCOc1ccc(/C=C/c2nc(C#N)c(NCCc3ccccc3)o2)cc1 | 12.7%
Cc1nn(Cc2ccc(F)cc2)c(C)c1NC(=O)c1cc(-c2ccco2)on1 | -5.5%
C=CCNc1nc(Nc2ccc(-c3nc4ccccc4o3)cc2)nc(N2CCOCC2)n1 | 18.4%
CCCNC(=O)c1onc(CSc2ccc(F)cc2)c1C(=O)NC(C)C | -19.1%
COc1ccc(C2C(C(=O)N3CCN(C)CC3)c3cc(OC)c(OC)cc3C(=O)N2C)cc1 (stereo unspecified) | -4.2%
Cc1cc(C)nc(NC(=S)NC(=O)c2ccccc2F)n1 | 6.0%
O=C1c2cccc3c(N4CCCCC4)ccc(c23)C(=O)N1CCO | -10.8%
COc1ccc(/C=N/NC(=O)c2ccc(CN3C(=O)c4cccc5cccc3c45)cc2)cc1O | -8.8%
COc1ccccc1OCCOc1ccc(/C=C2/C(=N)N3OC(C)=CC3=NC2=O)cc1OC | -13.7%
Clc1ccc(OCc2nnc(SCCN3CCCCC3)n2Cc2ccco2)cc1 | -15.5%
Cc1[nH]n(S(=O)(=O)c2ccccc2)c(=O)c1N=Nc1cccc(Cl)c1 | 3.6%
CCOc1ccccc1N(CC(=O)Nc1ccc(OC)cc1OC)S(=O)(=O)c1ccccc1 | 4.0%
O=C(CC(=O)NCc1ccc(Cl)cc1)NCc1ccc(Cl)cc1 | -3.6%
CS(=O)(=O)N1Cc2ccccc2CC1C(=O)OCC(=O)NCCc1ccc(S(N)(=O)=O)cc1 (stereo unspecified) | -16.7%
CCOc1ccc(C(=O)Nc2ccc3c(c2)CCCN3S(=O)(=O)c2ccc(C)cc2)cc1 | 9.5%
CCCn1c(SCC(=O)NC(=O)NC(C)(C)C)n[nH]c1=O | -14.3%
O=C(NC(=S)Nc1ccc2[nH]c(=O)[nH]c2c1)c1cc(Br)ccc1Cl | 14.0%
Cc1ccc(N2C(=O)/C(=C\c3ccco3)SC2=S)cc1 | -25.6%
CC(=O)Nc1ccc(S(=O)(=O)N2CCc3ccccc3C2)cc1 | -1.2%
COc1ccc(CNC(=O)c2ccccc2SCC(=O)NCc2ccco2)cc1 | -19.5%
O=C(N/C(=C/c1cccnc1)C(=O)N1CCCCCC1)c1ccccc1 | -13.8%
CC12CCC(=O)N1C(C(=O)Nc1ccccc1F)CS2 (stereo unspecified) | -24.0%
CC(C)c1ccc(/C=C/C(=O)Nc2ccc(CN3CCOCC3)cc2)cc1 | 0.6%
O=c1[nH]c2ccc(Br)cc2o1 | -7.3%
O=C(C(c1ccccc1)C(O)c1ccccc1)N1CCOCC1 (stereo unspecified) | 9.5%
CC(C)(C)OC(=O)NC(Cc1ccccc1)C(O)c1ccco1 (stereo unspecified) | -15.4%
O=C(NCCc1ccccc1)C1CC(c2ccccc2O)=NO1 (stereo unspecified) | 3.0%
CCOC(=O)N1CCc2c(sc3c2C(=O)NC(c2ccccc2F)N3)C1 (stereo unspecified) | -7.4%
Cc1ccc(CN(C(=O)COc2cccc([N+](=O)[O-])c2)c2ccccn2)o1 | 10.7%
CCOC(=O)N1CC(C)N(CC(O)CN2CCOCC2)CC1C (stereo unspecified) | 3.3%
COc1ccc(CC(=O)N[C@@H]2c3cc(OC)c(OC)cc3C[C@H]2OCc2ccccc2)cc1 | -14.8%
CN(C)c1ccc(NC(=O)Nc2ccc3c(c2)nnn3C)cc1 | -1.7%
Cc1[nH]nc(NNC(=O)c2ccccc2)c1[N+](=O)[O-] | -3.1%
Cc1cccc(-c2cc3nc(C)cc(N4CC(C)CC(C)C4)n3n2)c1 (stereo unspecified) | -8.0%
CC1(C)CC(CCC(=O)Nc2ccccc2Cl)C(=O)O1 (stereo unspecified) | 8.5%
Cc1ccc(C(=O)OCC(=O)N(C)C2CCS(=O)(=O)C2)cc1S(=O)(=O)N1CCOCC1 (stereo unspecified) | -17.6%
COC(=O)N/N=C/c1cc(Cl)cc(Cl)c1OCc1ccccc1F | 4.9%
CCN(CC)C(=O)N1CCN(Cc2ccc3c(c2)OCO3)CC1 | -4.5%
CC1CCN(c2ccc(/C=N/n3nnnc3N)cc2[N+](=O)[O-])CC1 | -12.6%
O=C(c1cc(Sc2cccc(Cl)c2)nc2ccccc12)N1CCN(c2ccccn2)CC1 | 14.9%
COc1ccc(-c2nn(CCC(=O)O)cc2CCC(=O)O)cc1 | 20.0%
CC(c1ccc(O)cc1)(c1ccc(O)cc1)c1ccc(CCBr)cc1 | 21.0%

The listing continues:
SMILES | VDR inhibitor
C#CCOCCOCCOCCNc1nc(N2CCN(C(=O)[C@H](CCCN=C(N)N)n3cc(C(N)[C@@H](C)CC)nn3)CC2)nc(N2CCN(C(=O)[C@H](CO)n3cc([C@@H](N)C(C)C)nn3)CC2)n1 (stereo partly specified) | -1.0%
Cc1ccc(CN2CCN(Cc3cn[nH]c3C3CCCCC3)CC2CCO)cc1 (stereo unspecified) | -18.8%
CCOc1ccc(S(=O)(=O)NCc2cccs2)cc1C(C)C | -7.6%
CC1CCC(NC(=O)CCc2cn(Cc3ccc(F)cc3)c3ccccc23)CC1 (stereo unspecified) | 11.9%
CCSc1nnc(NC(=O)c2csc3c2CCC(C)C3)s1 (stereo unspecified) | -14.6%
Cc1nn(C)cc1-c1csc(N)n1 | -6.6%
COc1ccc(C2=NN(C(=O)CSC3=NN4CCCC(=O)N=C4S3)C(c3cccc(OC)c3OC)C2)cc1 (stereo unspecified) | -13.7%
CCN(CC)c1ccc(CNS(=O)(=O)c2cc3c(cc2C)NC(=O)CO3)cc1 | 14.1%
COC(=O)c1ccc(CNC(=O)c2c3c(nc4ccccc24)CCN(Cc2ccccc2)C3)cc1 | 2.4%
CCCc1nc2ccccc2c(C(=O)OCC(=O)Nc2ccc(S(=O)(=O)N3CCOCC3)cc2)c1CC | -8.6%
CCN1/C(=C/c2cc[n+](CCCS(=O)(=O)[O-])c3ccccc23)Sc2ccccc21 | -2.3%
CCOc1cc(/C=N/NC(=O)c2cccc(S(=O)(=O)N3CCCC3)c2)ccc1OCC(=O)N(C)C | 10.5%
COC(=O)c1ccccc1NC(=O)N1CCN(c2ccc(F)cc2)CC1 | -6.6%
O=C(NCc1ccccc1)c1ccc(CSc2nc3cccnc3n2Cc2ccccc2F)cc1 | 4.2%
Cc1ccc(N(C(=O)NC2CCCCC2)C2=NCCCCC2)cc1 | -9.0%
CCn1cc(CNC(=O)c2cc(COc3ccc(F)cc3F)on2)cn1 | 11.9%
CCOC(=O)C1(Cc2cccc(F)c2)CCN(C(=O)C2CCCO2)CC1 (stereo unspecified) | 4.5%
CC(C)(C)C(=O)Nc1c2c(nn1-c1ccc(F)cc1)CSC2 | -11.6%
COc1cc(O)c(NC(C)=O)c2nonc12 | -81.4%
C=CCC[C@@H](Cc1ccc(F)cc1)C(=O)OC[C@@H](Cc1c[nH]c2ccccc12)NC(=O)[C@H](CC=C)CC(=O)N[C@H](CO)Cc1ccccc1 | 9.8%
CCO[C@H]1OC(C(=O)N2CCN(Cc3ccc4c(c3)OCO4)CC2)=C[C@@H](c2ccc(C(F)(F)F)cc2)[C@@H]1CCCO | -8.4%
O=C1CCCC(O)=C1Sc1cc(Cl)c(Cl)cc1Cl | -25.9%
O/N=C(\c1ccc(Cl)cc1)c1cc2ccccc2o1 | 0.0%
COc1ccc(N2C(=O)CN=C2Nc2nc(C)cc(C)n2)cc1OC | -5.0%
COc1ccc(-n2c(C)cc(C(=O)CSc3nnc(-c4cccs4)o3)c2C)cc1 | 3.1%

Part of the list above, with each value named:
O/N=C(\c1ccc(Cl)cc1)c1cc2ccccc2o1
  VDR inhibitor: 0.0%
COc1ccc(N2C(=O)CN=C2Nc2nc(C)cc(C)n2)cc1OC
  VDR inhibitor: -5.0%
COc1ccc(-n2c(C)cc(C(=O)CSc3nnc(-c4cccs4)o3)c2C)cc1
  VDR inhibitor: 3.1%
